POLK inh: DNA polymerase kappa (human) inhibition | Q9UBT6 | purified Pol kappa, fluorescent DNA synthesis assay, 10 min | Potency, µM (doses to about 107 µM), without a hit: at the top dose activity, negative = inhibition, most hits filed as inhibitors | 0.53% of 400,000 active; further: potency means the concentration at half of the fitted maximal effect; on the % scale 0 is the no-effect control and ±100 the full control effect
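Kinetic fluorescence screen: compound preincubated 15 min RT with 10 nM enzyme; 50 nM substrate (final) initiates; reads at 0/10 min.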
ERG Ets-DNA blk: inhibitors of human ERG Ets domain-DNA interaction. P11308. fluorescence polarization, His-ERG Ets domain / labelled DNA. Potency, µM (top dose mostly 76.9 µM), inactives show top-dose FP activity, negative = inhibition, hits mostly inhibitors. 0.028% of 370,000 active. AID 624246; active means well fitted inhibition curve with a large enough effect in the polarisation, with a control signal flat; inconclusive means small, poorly fitted or top-dose-only effect, or effect the other way, or a change in a side signal; inactive means no such curve, though single readings can be large or run the other way; the % refers to the polarisation;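 further: polarization taken with two DNA probes labelled with fluorescein and Texas red; potency means the concentration at half of the fitted maximal effect; % of control where 0% means no effect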
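His-tagged ERG Ets domain (1 uM in the protein solution; 300mM KCl, 50mM Tris-HCl, 1mM EDTA, 1mM DTT, pH 7.5) received compound, then a probe mix of 5 nM fluorescein-DNA and 100nM Texas-615-DNA. Fluorescence polarization was read for both dyes.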
Anesthetic bind: candidate novel general anesthetic via apoferritin binding | AID 485281 | 0.074% of 350,000 active | Potency, µM (titrated, usually from 77.5 µM), for the others: at the highest dose activity change, negative = displacement, usual class: inhibitors | apoferritin/1-aminoanthracene competitive binding, fluorescence | P02791; further: potency means the concentration at half of the fitted maximal effect; on the % scale 0 is the no-effect control and ±100 the full control effect; nearly all actives have a fitted effect of over 20% in size
Target sequence (P02791 2-175 limits assumed): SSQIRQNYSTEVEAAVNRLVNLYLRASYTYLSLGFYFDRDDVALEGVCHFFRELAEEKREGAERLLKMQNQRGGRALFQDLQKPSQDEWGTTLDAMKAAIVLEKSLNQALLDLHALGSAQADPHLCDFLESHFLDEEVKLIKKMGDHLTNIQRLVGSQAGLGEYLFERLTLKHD
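In PBS, apoferritin at 10 uM is loaded with 1-AMA from a 50% saturated solution. After 10 min of compound exposure at ambient temperature, reduced 535 nm fluorescence indicates probe displacement.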
RGS4 inh: human RGS4 inhibition; 0.039% of 390,000 active; Transcreener GDP fluorescence polarization, RGS4-accelerated GTP hydrolysis; P49798; Potency, µM (top dose mostly 114 µM), for inactives: at the highest dose activity change, negative = inhibition, most hits filed as inhibitors; further: potency means the concentration at half of the fitted maximal effect; on the % scale 0 is the no-effect control and ±100 the full control effect; nearly all actives have a fitted effect of over 75% in size; some results filed as inactive show a strong effect at the top dose
Target sequence (P49798 whole entry, looked up): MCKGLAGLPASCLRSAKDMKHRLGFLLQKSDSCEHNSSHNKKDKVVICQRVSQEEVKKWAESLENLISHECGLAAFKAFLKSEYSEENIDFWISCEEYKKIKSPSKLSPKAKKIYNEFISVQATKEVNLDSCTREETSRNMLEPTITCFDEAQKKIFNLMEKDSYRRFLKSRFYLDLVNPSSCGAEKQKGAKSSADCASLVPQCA
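MLSMR compounds (23 nl, pin-transferred) preincubated 10 min at room temperature with a 500nM (2x) first reagent, then RGS4 at 900nM (2x) plus Transcreener GDP mix added; fluorescence polarization (620/688 nm) read before and after 90 min at 30 °C.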
APEX1 inh: inhibitors of human APE1 endonuclease | recombinant APE1, TAMRA/BHQ-2 abasic DNA cleavage fluorescence | Potency, µM (doses to about 65.8 µM), for the others: at the top dose activity change, negative = inhibition, actives largely listed as inhibitors | 0.35% of 350,000 active;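 further: potency means the concentration at half of the fitted maximal effect; plate controls were vehicle for no effect and reference inhibitor for full effect; nearly all actives have a fitted effect of over 55% in size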
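Enzyme (0.75 nM final) and test compound are incubated 15 min at room temperature before adding 50 nM quenched THF abasic-site duplex. Cleavage dequenches TAMRA, followed at 525/598 nm over three reads one minute apart.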
Pol eta inh: blocks human DNA polymerase eta activity; Q9Y253; recombinant Pol eta, fluorescent DNA replication assay; Potency, µM (top dose mostly 114 µM), inactives show top-dose activity change, negative = inhibition, actives largely listed as inhibitors; 1.2% of 390,000 active; AID 588591; further: potency means the concentration at half of the fitted maximal effect; on the % scale 0 is the no-effect control and ±100 the full control effect
Target sequence (Q9Y253 whole entry, looked up): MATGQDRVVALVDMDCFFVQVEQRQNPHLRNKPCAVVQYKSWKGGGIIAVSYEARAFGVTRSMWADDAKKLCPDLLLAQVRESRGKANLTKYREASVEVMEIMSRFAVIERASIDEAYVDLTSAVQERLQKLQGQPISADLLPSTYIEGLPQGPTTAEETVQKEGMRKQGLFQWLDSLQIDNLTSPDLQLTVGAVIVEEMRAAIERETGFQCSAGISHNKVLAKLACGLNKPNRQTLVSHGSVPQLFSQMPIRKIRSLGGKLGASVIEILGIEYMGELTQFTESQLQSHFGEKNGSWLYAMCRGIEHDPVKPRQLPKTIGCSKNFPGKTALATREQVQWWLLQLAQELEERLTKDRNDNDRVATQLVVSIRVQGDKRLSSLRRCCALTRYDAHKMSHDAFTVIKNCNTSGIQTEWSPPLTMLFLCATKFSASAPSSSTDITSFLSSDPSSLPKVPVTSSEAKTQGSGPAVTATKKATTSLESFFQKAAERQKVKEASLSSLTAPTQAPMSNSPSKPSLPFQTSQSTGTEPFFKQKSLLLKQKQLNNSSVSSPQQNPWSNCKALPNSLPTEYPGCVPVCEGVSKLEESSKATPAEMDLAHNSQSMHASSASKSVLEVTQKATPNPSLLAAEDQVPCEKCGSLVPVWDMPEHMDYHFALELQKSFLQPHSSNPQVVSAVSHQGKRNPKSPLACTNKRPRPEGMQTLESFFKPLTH
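Pol eta at 10 nM preincubated with compounds 15 min at room temperature; reaction started with fluorescent substrate (50 nM final) and read kinetically at 0 and 10 min.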
POLB inh: DNA polymerase beta (human) inhibition | P06746 | Pol beta primer extension/strand displacement, fluorescence kinetic | Potency, µM (highest dose often 114 µM), for inactives: at the highest dose activity change, negative = inhibition, actives largely listed as inhibitors | 1.3% of 340,000 active; further: potency means the concentration at half of the fitted maximal effect; on the % scale 0 is the no-effect control and ±100 the full control effect
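Enzyme-only controls used 10 nM Pol beta; buffer lacking enzyme served as negative control. Compound preincubated 15 min, then 50 nM substrate added; 0 and 10 min reads at room temperature.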
LDHA block: blocks human lactate dehydrogenase A; P00338; purified LDHA, NADH/diaphorase-resazurin fluorescence; active compounds read low; activity change, % (values are at about 110 or 230 µM); 0.15% of 480,000 active; AID 1347041; in the data active means activity change below about -30%; inconclusive means mostly about -25% to -30%;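 further: plate controls were DMSO wells for no effect and wells without enzyme for full effect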
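Enzyme activity of human lactate dehydrogenase 5 (2 nM; 0.06 mM NADH, 0.2 mM pyruvate, 5 min, RT) is measured via a resazurin/diaphorase fluorescence readout of residual NADH.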
Active calls of the source: *; & = joins results of further samples; [ ] = dose if it differs, or a comment. Unless noted, the call rests on the fitted dose curve; in most records, active means well fitted curve in the direction sought with a large enough effect; inconclusive means small, poorly fitted or top-dose-only effect, or another doubt; inactive means no such curve, though single readings can be large; an effect the other way counts as inactive or inconclusive.

Screening O=c1c2cc(-c3ccccc3)sc2nc2n1N=C(c1cccs1)CS2 returned POLK inh 9%, ERG Ets-DNA blk 9%, Anesthetic bind -1%, RGS4 inh -15%, APEX1 inh inconclusive, Pol eta inh -11%, POLB inh inconclusive and LDHA block -2.
CC(C)Oc1cccc(C(=O)NC(=S)Nc2ccc(Cl)c(C(=O)O)c2)c1 was read as POLK inh -3%, ERG Ets-DNA blk -2%, Anesthetic bind -9%, RGS4 inh -37%, APEX1 inh -2%, Pol eta inh -8%, POLB inh 21% and LDHA block 0.
For Cn1c(Nn2cnnc2)nc2ccccc21 the results were POLK inh -4%, ERG Ets-DNA blk 4%, Anesthetic bind -11%, RGS4 inh 20%, APEX1 inh -1%, Pol eta inh -13%, POLB inh 19% and LDHA block -2.
Screening O=C(NCc1ccc2c(c1)OCO2)C(=O)NCC1OCCN1S(=O)(=O)c1ccccc1 (centres undefined) returned POLK inh -11%, ERG Ets-DNA blk 8%, RGS4 inh -4%, Pol eta inh -16% and LDHA block -3.
For CCOc1cccc(-c2cc(-c3n[nH]c(=S)n3CC)c3ccccc3n2)c1 the results were POLK inh -4%, ERG Ets-DNA blk -5%, Anesthetic bind inconclusive, RGS4 inh -16%, APEX1 inh -11%, Pol eta inh -5%, POLB inh -6% and LDHA block -9.
COc1cc2ccccc2cc1C(=O)Nc1ccc(Cc2ccncc2)cc1 was read as POLK inh -11%, ERG Ets-DNA blk -3%, Anesthetic bind 3%, RGS4 inh -8%, APEX1 inh -6%, Pol eta inh -24%, POLB inh -5% and LDHA block -4.
S=c1[nH]nc(CSc2nc3ccccc3s2)n1C1CCCCC1 was read as POLK inh 5%, ERG Ets-DNA blk 2%, Anesthetic bind -4%, RGS4 inh -30%, APEX1 inh -2%, Pol eta inh -1%, POLB inh 19% and LDHA block 0.
`COc1cccc(CN(C)CC(=O)Nc2cccc(C(F)(F)F)c2)c1OC` gave POLK inh -4%, ERG Ets-DNA blk -5%, Anesthetic bind -10%, RGS4 inh 17%, APEX1 inh -11%, Pol eta inh -24%, POLB inh -20% and LDHA block -8.
`O=C(/C=C\c1ccco1)Nc1nc(-c2ccccc2)cs1` gave POLK inh -17%, Anesthetic bind -14%, RGS4 inh 3%, APEX1 inh 3%, Pol eta inh -8%, POLB inh inconclusive and LDHA block -8.
For Cc1nnnn1-c1cccc(C(=O)O)c1 the results were POLK inh -6%, ERG Ets-DNA blk 1%, Anesthetic bind -9%, RGS4 inh -17%, APEX1 inh -3%, Pol eta inh -5%, POLB inh 5% and LDHA block -6.
For CCCCOc1ccc(CNC(=S)N/N=C/c2ccc(OC)c(OC)c2)cc1 the results were POLK inh -13%, ERG Ets-DNA blk 4%, Anesthetic bind 112%[activator], RGS4 inh -16%, APEX1 inh -9%, Pol eta inh -10%, POLB inh -27% and LDHA block -8.
O=C(NCc1cn(-c2ccccc2)nc1-c1ccccc1)c1cccc([N+](=O)[O-])c1 was read as POLK inh 4%, ERG Ets-DNA blk 17%, Anesthetic bind 1%, RGS4 inh -4%, APEX1 inh 9%, Pol eta inh -13%, POLB inh 50% and LDHA block 1.
`CC(O)(C(=O)c1ccccc1)c1ccccc1` (centres undefined) gave LDHA block -4.
Cc1ccc(-c2cc(C(F)F)nc(N3CCOCC3)n2)cc1 was read as POLK inh -26%, ERG Ets-DNA blk -2%, Anesthetic bind 1%, RGS4 inh 7%, APEX1 inh -2%, Pol eta inh -9%, POLB inh 20% and LDHA block -4.
Screening COc1cccc(CNc2ccc(S(=O)(=O)Nc3nccs3)cc2)c1O returned POLK inh -24%, ERG Ets-DNA blk -5%, Anesthetic bind -19%, RGS4 inh 11%, APEX1 inh -11%, Pol eta inh 4%, POLB inh 5% and LDHA block -3.
For CC[C@](C)(CN(C)C)OC(=O)c1ccccc1 the results were POLK inh -6%[12 µM] and Anesthetic bind -2%[29.3 µM].
For Cc1c(C(=O)N2CCCCC2)c(S(=O)(=O)NCCc2ccc(Cl)cc2)c(C)n1C the results were POLK inh 3%, ERG Ets-DNA blk 8%, Anesthetic bind -7%, RGS4 inh -12%, APEX1 inh 19%, Pol eta inh -5%, POLB inh 10% and LDHA block 0&11.
For FC(F)(F)c1cc(-c2ccco2)nc2ncnn12 the results were POLK inh -21%, ERG Ets-DNA blk 4%, RGS4 inh 6%, APEX1 inh 0%, Pol eta inh 1%, POLB inh -1% and LDHA block -3.
For Nc1c(SCCC(=O)O)ccc2c1C(=O)c1ccccc1C2=O the results were POLK inh 2%, ERG Ets-DNA blk 56%[activator], Anesthetic bind -8%, RGS4 inh -31%, APEX1 inh 25%, Pol eta inh -29%, POLB inh inconclusive and LDHA block 4.
Cc1ccccc1NC(=O)Nc1ccccc1N1CCCCC1 was read as POLK inh -10%, ERG Ets-DNA blk -1%, Anesthetic bind -9%, RGS4 inh -2%, APEX1 inh 8%, Pol eta inh -24%, POLB inh 1% and LDHA block -1.
`CCc1ccc(Cn2nnc(C(=O)NCc3ccccc3OC)c2N)cc1` gave POLK inh -11%, ERG Ets-DNA blk -9%, Anesthetic bind -15%, RGS4 inh -23%, APEX1 inh -3%, Pol eta inh 3%, POLB inh inconclusive and LDHA block -9.
O=C(NC1CCS(=O)(=O)C1)c1c(NC(=O)C2COc3ccccc3O2)sc2c1CCCC2 (centres undefined) was read as POLK inh 5%, ERG Ets-DNA blk 13%, Anesthetic bind -12%, RGS4 inh -7%, APEX1 inh 0%, Pol eta inh -2%, POLB inh 15% and LDHA block -1.
Screening Cc1ccc(S(=O)(=O)N(c2nc(NC(C)C)nc(NC(C)C)n2)n2cnnc2)cc1 returned POLK inh -11%, ERG Ets-DNA blk -8%, Anesthetic bind -10%, RGS4 inh -17%, APEX1 inh 1%, Pol eta inh -23%, POLB inh -13% and LDHA block -2.
Screening COC(=O)c1cc(CSc2nc3ccc(C)cc3[nH]2)oc1C returned POLK inh -3%, ERG Ets-DNA blk 2%, Anesthetic bind inconclusive, RGS4 inh -19%, APEX1 inh 1%, Pol eta inh -12%, POLB inh -4% and LDHA block -1.
O=C(Nc1nc2ccc(Cl)cc2s1)C1CCCO1 (centres undefined) was read as POLK inh 4%, ERG Ets-DNA blk 1%, Anesthetic bind -11%, RGS4 inh -27%, APEX1 inh 11%, Pol eta inh -9%, POLB inh 17% and LDHA block -3.
For O=S(=O)(Nc1ccc(S(=O)(=O)N2CCCCC2)cc1)c1cccs1 the results were POLK inh -12%, ERG Ets-DNA blk 0%, Anesthetic bind -5%, RGS4 inh -23%, APEX1 inh 0%, Pol eta inh 2%, POLB inh -13% and LDHA block -5.
For Cc1ccc(CC2CC(=O)N(c3ncccn3)C2=O)cc1 (centres undefined) the results were POLK inh -10%, ERG Ets-DNA blk -4%, Anesthetic bind -5%, RGS4 inh -18%, APEX1 inh 0%, Pol eta inh -25%, POLB inh 17% and LDHA block -7.
CCc1nc2ccc(C(=O)N3CCN(c4cc(C)ccc4C)CC3)cc2nc1CC was read as POLK inh -4%, ERG Ets-DNA blk -3%&7%, Anesthetic bind -21%&-16%, RGS4 inh 0%[56.9 µM], APEX1 inh -25%, Pol eta inh -12%&-14%, POLB inh 23%&-21% and LDHA block -1&-12.
Screening CSc1ccc(S(=O)(=O)N2CCC(C(=O)Nc3ccc(NC(C)=O)cc3)CC2)cc1 returned POLK inh -1%, ERG Ets-DNA blk -3%, Anesthetic bind 0%, RGS4 inh -18%, APEX1 inh 49%[activator], Pol eta inh -12%, POLB inh 0% and LDHA block -7.
O=C(CCN1CCN(c2ccccc2)CC1)c1ccc(Cl)cc1 was read as POLK inh 10%, ERG Ets-DNA blk 10%, Anesthetic bind -6%, RGS4 inh -39%, APEX1 inh 29%, Pol eta inh 3%, POLB inh 2% and LDHA block -3.
Screening CC(C)CCN1CCN=C1N(C)C returned POLK inh 13%, ERG Ets-DNA blk -1%, RGS4 inh -7%, APEX1 inh 18%, Pol eta inh 1% and LDHA block 1.
Screening Cc1ccc(NC(=S)NC(NC(=O)c2ccccc2C)C(Cl)(Cl)Cl)c(C)c1 (centres undefined) returned POLK inh -11%, ERG Ets-DNA blk -3%, Anesthetic bind inconclusive, RGS4 inh -41%, APEX1 inh -7%, Pol eta inh -7%, POLB inh 0% and LDHA block -14.
For CCC(=O)N1CCc2cc(S(=O)(=O)NCCC(=O)N3CCN(c4cccc(C)c4)C(C)C3)ccc21 (centres undefined) the results were POLK inh -9%, ERG Ets-DNA blk -8%, Anesthetic bind -9%, RGS4 inh 3%, APEX1 inh -6%, Pol eta inh -20%, POLB inh -2% and LDHA block 1.
For CN1CCN(C(=S)c2cn(Cc3ccccc3F)c3ccccc23)CC1 the results were POLK inh -6%, ERG Ets-DNA blk -1%, Anesthetic bind -17%, RGS4 inh -16%, APEX1 inh 10%, Pol eta inh -26%, POLB inh 2% and LDHA block -6.
`Cc1nc(NS(=O)(=O)c2ccccc2)sc1NC(=O)OC(C)C` gave POLK inh -2%, Anesthetic bind -8%, RGS4 inh -22%, APEX1 inh 19%, Pol eta inh -2%, POLB inh 33% and LDHA block -4.
`COc1ccc(NC(=S)Nc2ccccc2)cn1` gave POLK inh 0%, ERG Ets-DNA blk -6%, Anesthetic bind 4%, RGS4 inh -37%, APEX1 inh 2%, Pol eta inh -17%, POLB inh 13% and LDHA block 4.
For CCOC(=O)CN1CC23C=CC(O2)C(C(=O)NC2CCCCC2)C3C1=O (centres undefined) the results were POLK inh 5%, ERG Ets-DNA blk -4%, Anesthetic bind 2%, RGS4 inh -11%, APEX1 inh 0%, Pol eta inh 0%, POLB inh -7% and LDHA block -6.
`COC(=O)C1=C(C)N(C(C)c2ccccc2)C(=O)C1` (centres undefined) gave POLK inh -4%, ERG Ets-DNA blk 6%, Anesthetic bind 6%, RGS4 inh -9%, APEX1 inh 1%, Pol eta inh -11%, POLB inh 6% and LDHA block 2.
C/C(=N\NC(=O)CCn1nc(C)cc1C)C(C)(C)C was read as POLK inh -3%, ERG Ets-DNA blk -13%, Anesthetic bind -5%, RGS4 inh -16%, APEX1 inh 0%, Pol eta inh -10%, POLB inh -1% and LDHA block -5.

Some of the compounds tested; the hit share may differ from the screen's.
